ClpP mod – qHTS Assay for Activators of ClpP; ATP-dependent Clp protease proteolytic subunit (Bacillus subtilis (strain 168)), P80244; Potency, µM (doses to about 57.5 µM), for inactives: at the highest dose activity change, negative = active; actives 1.9% (n = 340,000); AID 651965, 2013; purified B. subtilis ClpP, FRET peptide cleavage, 20 min; active = well fitted falling curve with a large enough effect; inconclusive = small, poorly fitted or top-dose-only effect; inactive = no such curve, though single readings can be large or run the other way; note: the source files actives as falling curves though it sought activators and does not explain the sign; nearly all actives have a fitted effect of over 65% in size; many hits overshoot -100%
Target sequence (P80244 whole entry, looked up): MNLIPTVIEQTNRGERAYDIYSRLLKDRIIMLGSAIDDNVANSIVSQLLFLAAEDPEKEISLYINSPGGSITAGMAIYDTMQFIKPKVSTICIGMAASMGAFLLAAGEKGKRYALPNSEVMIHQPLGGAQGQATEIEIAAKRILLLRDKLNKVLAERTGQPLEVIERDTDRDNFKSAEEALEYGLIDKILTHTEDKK
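FRET quenching reversal measured ClpP activation: 10 microg/mL B. subtilis ClpP at pH 8 with the FRET-FV decapeptide, read at 430 nm after 320 nm excitation. The 20-min minus 0-min signal was scaled between DMSO/no-enzyme wells and ADEP (5.8 microM final).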
PINK1 expr mod – changes PINK1 expression | PINK1 immunofluorescence, high-content cytometry, 24 h | Potency, µM (doses to about 76.6 µM), for inactives: top-dose activation (PINK1 increase), usual class: activators | actives 0.2% (n = 410,000); active = well fitted activation curve with a large enough effect; inconclusive = small, poorly fitted or top-dose-only effect; inactive = flat fitted curve, though single readings scatter; cell line not stated here;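 note: % of control where 0% means no effect; nearly all actives have a fitted effect of over 65% in size; a mitochondrial uncoupler was the plate control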
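A stable cell line was treated with compounds at 5 concentrations for 24 hours, with CCCP as control. PINK1 levels and mitochondrial localization were measured by immunofluorescence with mitochondrial, cell and nuclear markers after fixation, read by laser-scanning cytometry.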
* = called active by the depositor; u = inconclusive; x = not tested or not shown; & = joins results of further samples. Potency is the fitted concentration of half-maximal effect. This is a subset, so the mix of outcomes need not match the whole.

SMILES | ClpP mod | PINK1 expr mod
CCCCCNC(=O)C(c1ccc(OC)cc1)n1c(=O)c(-c2cc3ccccc3[nH]2)nc2ccccc21 (stereo not given) | u | x
CCCCNC(=O)C(NC(=O)c1cnccn1)C(=O)c1ccccc1 (stereo not given) | -0.3% | x
Fc1ccc(/C=C/c2ccc3ccccc3n2)cc1 | -20.4% | x
COc1ccc(C(C(=O)NC(C)(C)C)n2c(=O)c(-c3cc4ccccc4[nH]3)nc3ccccc32)cc1 (stereo not given) | 4.5% | x
Cc1ccnc2ccc3ccccc3c12 | 4.6% | x
Cc1ccc(S(=O)(=O)C[C@@H]2OC[C@H](C)N2S(=O)(=O)c2ccc(C)cc2)cc1 | -0.7% | x
CCOC(=O)[C@]12CCCC=C1N(CCc1ccc(OC)c(OC)c1)C(=O)[C@H](CC(=O)NCCc1ccccc1OC)C2 | 0.7% | x
Cc1ccc(S(=O)(=O)N2[C@@H](Cc3ccccc3)CO[C@H]2CC(=O)c2ccc(F)cc2)cc1 | -6.1% | x
CCOC(=O)[C@]12CCCC=C1N(CCC1=CCCCC1)C(=O)[C@H](CC(=O)NCCCN1CCCC1=O)C2 | -0.4% | x
COc1ccc(CN2C(=O)CSCC2(C)C(=O)NC(C)C)cc1 (stereo not given) | -1.0% | x
CC(C)(C)OC(=O)NCCc1nc(NC(=O)OCc2ccccc2)sc1C(=O)O | 1.7% | x
O=C(NCc1ccccc1)C(C1CC1)n1c(Cc2cc(F)cc(F)c2)nc2ccccc21 (stereo not given) | -1.4% | x
CN1C(=O)[C@@](O)(c2cn(C)c3ccccc23)c2cc(F)ccc21 | -0.8% | x
CN1C(=O)[C@@](O)(c2cn(C)c3ccccc23)c2ccccc21 | 0.0% | x
O=C(Nc1ccc(F)cc1)C(c1cc2ccccc2o1)N1CCN(c2cccc(C(F)(F)F)n2)CC1 (stereo not given) | -2.9% | x
C(=C\c1c[nH]c2ccccc12)/c1cc[n+](C2CCCCC2)cc1 | -0.5% | x
CCC(C(=O)NCc1ccccc1)n1c(Cc2cc(F)cc(F)c2)nc2ccccc21 (stereo not given) | -1.0% | x
Cc1cc(C)c2c(C)ccnc2c1 | 4.1% | x
O=C(NCc1ccccc1)C(CCc1ccccc1)n1c(=O)c(-c2cc3ccccc3[nH]2)nc2ccccc21 (stereo not given) | 11.4% | x
CCOC1=C2CN(S(=O)(=O)c3ccc(C)cc3)C(c3ccc(CC)cc3)CC2n2c(=O)n(-c3ccccc3)c(=O)n2C1 (stereo not given) | 0.8% | x
O=C(NC1CCCC1)c1nc(-c2ccco2)oc1-c1ccccc1 | 4.8% | x
CN(C)c1ccc(/C=C/N2C=CCc3c2ccc2ccccc32)cc1 | -7.2% | x
CC(C)(C)NC(=O)C(c1ccccc1F)n1c(=O)c(-c2cc3ccccc3[nH]2)nc2ccccc21 (stereo not given) | 8.3% | x
O=C(NCc1ccccc1)C(c1cccc2ccccc12)n1c(=O)c(-c2cc3ccccc3[nH]2)nc2ccccc21 (stereo not given) | 41.5% | x
COC(=O)C1(C(=O)OC)c2ccccc2N(S(=O)(=O)c2ccc(C)cc2)C1CC(=O)c1ccccc1 (stereo not given) | -0.5% | x
CC1(C(=O)NCc2ccccc2)CSCC(=O)N1Cc1cccc(C(F)(F)F)c1 (stereo not given) | -0.8% | x
Nc1nc(=O)n(C2CCC(CO)O2)cc1F (stereo not given) | -4.6% | x
O=C(NC1CCCCC1)[C@@H]1CC=C[C@@H]2CCN(Cc3ccc(Cl)c(Cl)c3)C(=O)[C@@H]21 | -4.4% | x
COc1ccc(C(C(=O)NCc2ccccc2)n2c(=O)c(-c3ccccc3)nc3ccccc32)cc1 (stereo not given) | 28.2µM* | x
O=C(C(=O)N1CCC(c2ccccc2)CC1)c1ccccc1 | -1.5% | x
CCCc1nc2ccccc2n1C(C)C(=O)NC(C)(C)C (stereo not given) | -9.3% | x
CSCCC(C(=O)NC(C)(C)C)n1c(-c2ccc(C)cc2)nc2ccccc21 (stereo not given) | -16.9% | x
O=C(Nc1ccc(F)cc1)C(CCc1ccccc1)N1CCN(c2ccncc2)CC1 (stereo not given) | -0.4% | x
CCCCCCC[n+]1ccc(/C=C/c2c(C)[nH]c3ccccc23)cc1 | -0.9% | x
CCCCCCC[n+]1ccc(/C=C/c2c[nH]c3ccccc23)cc1 | -0.7% | x
CCCc1c(-c2cccc(Br)c2)ncn1Cc1cccc(-c2ccccc2)c1 | -6.1% | x
Cc1cc2c(cc1C)-n1nnnc1C(N1CCCC1)C(=O)N2 (stereo not given) | -2.5% | x
CSCCC(c1nc2ccccc2[nH]1)n1c(/C=C/c2ccc(F)c(F)c2)nc2ccccc21 (stereo not given) | 5.0% | x
COc1cc2ccc(CC(=O)O)cc2cc1OC | -7.0% | x
CC(C)(C)C(c1nc2ccccc2[nH]1)n1c(-c2ccco2)nc2ccccc21 (stereo not given) | 2.9% | x
CCCc1c(-c2ccc(Cl)cc2)ncn1Cc1cccc(-c2ccccc2)c1 | -6.8% | x
O=C(C(=O)N1CCN(C(=O)OCc2ccccc2)CC1)c1cccnc1 | 2.0% | x
COC(=O)[C@@]12C[C@@H](CC(=O)N3CCOCC3)C(=O)N(Cc3cccc4ccccc34)C1=CCC(C)(C)C2 | -0.8% | x
Cc1cccc(C)c1NC(=O)C(CCc1ccccc1)N1CCN(C)CC1 (stereo not given) | -4.3% | x
Cc1[nH]c2ccccc2c1/C=C/c1nccc2ccccc12 | -3.5% | x
Cc1cc(NC(=O)OC(C)(C)C)c(-n2nnnc2C(C(=O)c2ccccc2)N2CCOCC2)cc1C (stereo not given) | 14.7% | x
COc1cccc(C(=O)C(=O)N2CCN(C(=O)OCc3ccccc3)CC2)c1 | 1.1% | x
Cc1ccccc1S(=O)(=O)N1C[C@@H]2C(C(=O)C[C@@H]3C(=O)N(C)C(=O)[C@@H]32)[C@@H]1c1ccc(Cl)cc1 (stereo not given in full) | 0.5% | x
C[C@@H]1[C@H](c2ccccc2)OCCS(=O)(=O)N1Cc1cccc(Cl)c1 | 1.6% | x
COC(=O)C1=CN(c2ccc3c(c2)OCO3)C(N)=C(C#N)C1c1ccccc1 (stereo not given) | -1.9% | x
COC(=O)[C@@]12C[C@@H](CC(=O)NCCC(C)C)C(=O)N(Cc3ccco3)C1=CCC(C)(C)C2 | -0.6% | x
O=C(NCc1cccnc1)[C@@H]1CC=C[C@@H]2CCN(C3CCCCC3)C(=O)[C@@H]21 | 0.6% | x
O=S1(=O)CCO[C@H]2CCCC[C@@H]2N1Cc1ccc(Cl)cc1 | 0.8% | x
COc1ccc(N2C(=O)c3ccccc3NC(=O)C2C(=O)NCC(C)C)cc1 (stereo not given) | -3.3% | x
COC(=O)[C@]12CCCCC=C1N(CCc1ccc(OC)c(OC)c1)C(=O)[C@H](CC(=O)N1CCCCC1)C2 | -0.3% | x
O=C(NC1CCCC1)C(c1ccccc1)n1c(-c2cccs2)nc2ccccc21 (stereo not given) | 4.7% | x
C#CCN(C1CCCC1)S(=O)(=O)C=C | -0.7% | x
CN(C)c1ccc(/C=C/c2ccnc3ccccc23)cc1Cl | 0.2% | x
COC(=O)[C@@]12C[C@@H](CC(=O)NCc3ccc(C)o3)C(=O)N(Cc3ccco3)C1=CCC(C)(C)C2 | -1.1% | x
CCCCNC(=O)c1nc(-c2cc3ccccc3[nH]2)oc1-c1ccccc1 | 4.8% | x

6 compounds from above, ordered by count of non-hydrogen atoms, lowest first:
SMILES | ClpP mod | PINK1 expr mod
O=S1(=O)CCO[C@H]2CCCC[C@@H]2N1Cc1ccc(Cl)cc1 | 0.8% | x
CN(C)c1ccc(/C=C/c2ccnc3ccccc23)cc1Cl | 0.2% | x
O=C(NCc1cccnc1)[C@@H]1CC=C[C@@H]2CCN(C3CCCCC3)C(=O)[C@@H]21 | 0.6% | x
COC(=O)C1=CN(c2ccc3c(c2)OCO3)C(N)=C(C#N)C1c1ccccc1 (stereo not given) | -1.9% | x
Cc1ccccc1S(=O)(=O)N1C[C@@H]2C(C(=O)C[C@@H]3C(=O)N(C)C(=O)[C@@H]32)[C@@H]1c1ccc(Cl)cc1 (stereo not given in full) | 0.5% | x
COC(=O)[C@@]12C[C@@H](CC(=O)N3CCOCC3)C(=O)N(Cc3cccc4ccccc34)C1=CCC(C)(C)C2 | -0.8% | x

(listing goes on)
SMILES | ClpP mod | PINK1 expr mod
CCOC(=O)[C@]12CCCC=C1N(CCc1ccc(OC)c(OC)c1)C(=O)[C@H](CC(=O)NCCCCc1ccccc1)C2 | 1.3% | x
Cc1cc(=O)[nH]c2ccc(O)cc12 | 4.1% | x
COc1ccc(CN2CC[C@H]3C=CC[C@@H](C(=O)Nc4ccccc4)[C@H]3C2=O)cc1OC | 0.6%&-1.1% | x
COC(=O)C1=CN(c2ccc(F)cc2)C(N)=C(C#N)C1c1ccccc1 (stereo not given) | 1.9% | x
COP(=O)(OC)OC(C(=O)c1ccccc1)c1ccc(Cl)cc1 (stereo not given) | -0.4% | x
Cc1sc2ccccc2[n+]1Cc1ccccc1 | 0.5% | x
COCCN1C(=O)CSCC1(C)C(=O)NC(C)C (stereo not given) | -1.3% | x
COC1=CC(=O)OC(c2ccccc2C(F)(F)F)C1 (stereo not given) | 0.4% | x
O=C(NC1CCCC1)C(C1CC1)n1c(C2CC2)nc2ccccc21 (stereo not given) | 1.6% | x
COc1ccc(N2C(=O)c3ccccc3NC(=O)C2C(=O)NCCc2ccccc2F)cc1 (stereo not given) | -1.5% | x
CC(C)(C)CC(C)(C)N=C1Nc2ccccc2N[C@]12C[C@H]1CCCC(=O)N3CC[C@@H](C2)[C@@H]13 | 0.4% | x
CC(c1nc2ccccc2n1Cc1ccccc1)n1c(-c2cnccn2)nc2ccccc21 (stereo not given) | -27.0% | x
CC(=O)N1CCC(C(=O)N2c3ccccc3N=C(c3ccc4c(c3)OCO4)C2C(=O)NCc2ccccc2)CC1 (stereo not given) | -19.1% | x
COc1ccc(-c2cn3nc(N4CCC(C(=O)Nc5cccc(C)c5C)CC4)sc3n2)cc1 | -0.6% | 2.2%
Cc1ccc(Cn2c(C)c3cnn(CC(=O)N4CCN(c5ccc(F)cc5)CC4)c(=O)c3c2C)cc1 | -26.1% | 2.1%
CC1CCc2nc(-c3cc4ccc(O)cc4oc3=O)sc2C1 (stereo not given) | 4.7% | -0.1%
O=C(CSc1nc2ccccc2n1Cc1cccc(F)c1)NCc1ccccc1 | -1.7% | 0.7%
COc1ccc2c(c1)c1c(c(=O)n(-c3ccccc3)c(=O)n1CC(=O)Nc1ccc(C)c(C)c1)n2C | u | -0.6%
CSc1ccc(CNC(=O)C2CCN(c3nc4ccccc4nc3C(F)(F)F)CC2)cc1 | 0.0% | -0.6%
CCOc1ccc(-c2nc3c(c(SCC(=O)N4CCCCC4)n2)Cc2cccc(OC)c2O3)cc1 | -1.2% | 1.6%
Cn1c(=O)n(C)c2cc(N3CCOCC3)c(NS(=O)(=O)c3ccc(C(C)(C)C)cc3)cc21 | -1.3% | -0.9%
COc1ccc(C)cc1NC(=O)c1sc2nc(-c3ccc(F)cc3)cn2c1C | -5.1% | 2.0%
CCOc1ccc(N(C)S(=O)(=O)c2c(C(=O)N3CCC(C)CC3)c(C)n(C)c2C)cc1 | -1.4% | -0.3%
Cc1cc2nc(-c3cccc(Br)c3)c(Cc3cccc(Cl)c3)n2c(C)c1Br | -0.4% | 2.7%
COc1ccc(C)cc1NC(=O)CCS(=O)(=O)c1ccc2c(c1)CC(=O)N2C | -0.2% | 2.9%
CCN(CC)c1nc2c(S(=O)(=O)c3ccccc3)nnn2c2ccc(Cl)cc12 | u | -2.6%
CCc1cccc(C)c1NC(=O)Cn1c(=O)cc(C(F)(F)F)c2c(C)nn(C)c21 | -13.7% | 3.2%
O=C(NCc1ccccn1)c1nn(-c2ccccc2Cl)nc1CO | -0.8% | -0.1%
CCCc1nn2c(=O)cc(COc3ccc(/C=C(\C#N)C(=O)Nc4ccc(F)cc4)cc3)nc2s1 | 1.9% | 2.2%
COc1ccc(C)cc1NC(=O)C(=O)NCCc1sc(-c2cccc(C)c2)nc1C | 70.7% | -0.4%
Cc1cccc(Cn2cc(C(=O)Nc3ccc(F)c(C(F)(F)F)c3)ccc2=O)c1 | -1.3% | 8.8%
CCc1ccccc1NC(=O)c1ccc2nc(C(C)C)oc2c1 | -1.2% | 4.6%
CCOC(=O)c1sc2nc(OCc3cccnc3)cc(C)c2c1N | 5.0% | 0.6%
CC1CCN(C(=O)C(C)OC(=O)c2ccc(S(C)(=O)=O)c([N+](=O)[O-])c2)CC1 (stereo not given) | -1.3% | 0.5%
CC1CCN(C(=O)CSc2c3c(nc4ccc(Cl)cc24)CCCC3)CC1 | -0.9% | 3.1%
CCSc1ncc(Cl)c(C(=O)Nc2nc3ccc(S(C)(=O)=O)cc3s2)n1 | -1.5% | 0.2%
Cc1ccc(NC(=O)CN2C(=O)c3ccccc3Sc3ccc(C(=O)N4CCOCC4)cc32)cc1F | -1.1% | 0.9%
CCOC(=O)c1c(NC(=O)c2cc(=O)c3cc(C)cc(C)c3o2)sc(C)c1C | -2.0% | 3.7%
COc1cccc(CNC(=O)c2ccc3nc(CCc4ccccc4)oc3c2)c1OC | -2.0% | 1.0%
COc1ccc(-c2c(C)nn3c(-c4ccccc4)cc(-c4ccccc4)nc23)cc1 | -1.5% | u
COc1ccc(Cn2c(CNC(=O)Cc3ccc(OC)c(OC)c3)nc3cccnc32)cc1 | -0.2% | -0.2%

Screening data (PubChem BioAssay)
